Screening data from PubChem.
GIV Gai3 FP = blocks GIV peptide binding to rat Galpha-i3 | Galpha-i3/FITC-GIV peptide fluorescence polarization, 90 min; stronger effect = lower value; scaled: aluminum fluoride 0%, vehicle 100% | P08753 | percent of control (FP), % (no concentration beside the values) | actives 0.42% (n = 210,000);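 active means replicate mean at 85% of control or lower, very high polarization wells dropped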;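 further: wells of about 15 µL received 100 nL stock; the first replicate is given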
Target sequence (P08753 whole entry, looked up): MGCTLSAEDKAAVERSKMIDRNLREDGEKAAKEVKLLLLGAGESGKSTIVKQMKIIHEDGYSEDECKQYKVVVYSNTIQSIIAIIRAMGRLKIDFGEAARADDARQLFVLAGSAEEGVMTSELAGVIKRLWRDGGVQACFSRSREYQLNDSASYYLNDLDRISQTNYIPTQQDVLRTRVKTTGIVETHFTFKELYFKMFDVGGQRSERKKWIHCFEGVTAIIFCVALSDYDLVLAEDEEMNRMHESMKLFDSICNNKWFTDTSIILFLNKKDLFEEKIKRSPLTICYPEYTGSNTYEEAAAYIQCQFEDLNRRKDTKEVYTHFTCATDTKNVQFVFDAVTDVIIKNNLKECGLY
HCMV UL50-53 inh = disrupts HCMV UL50-UL53 complex binding. HTRF UL50-UL53 interaction, normalized percent inhibition. inhibition, % (concentration not given with the values). actives 0.15% (n = 190,000);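 active means both replicates at 50% or more, plus weaker picks with an unusually low signal ratio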;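 further: stock transfer was 100 nL into about 20 µL; 0% = negative control wells and 100% = wells with untagged competitor protein; inactives centre near -12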
Sa growth 42C = S. aureus growth inhibition; relative growth, % (no concentration beside the values); actives 0.53% (n = 170,000); S. aureus RN4220 growth, OD600, 20 h, 42 °C; stronger effect = lower value;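 active means growth at 42 °C up to 50% and 20 or more points under that at 30 °C, or under 10% at both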;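 further: 300 nL library stock went into each well; scaled to the means of positive and negative controls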
Sa growth 42C second temp = recorded beside Sa growth 42C, whose call it bears; relative growth, %; measured here: growth at 30 °C;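 optical density after 20 h as mean of two plates; 100% = untreated growth and lower means inhibition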
An asterisk follows results filed as active; . = not tested or not shown; & = joins results of further samples.

SMILES | GIV Gai3 FP | HCMV UL50-53 inh | Sa growth 42C | Sa growth 42C second temp
COC(=O)COc1ccc(/C=C2\C(=O)NC(=O)N(c3ccc(Br)cc3)C2=O)cc1OC | 105 | -31 | . | .
CC(C)C(NC(=O)C1CCCCC1)C(=O)O (stereo unspecified) | 98 | -3 | 97 | 106
CCCCN(C)S(=O)(=O)c1cc(-c2cc(C(=O)OCC)no2)ccc1OC | 105 | -20 | 99 | 90
COc1cc(/C=C2\N=C(c3c(-c4ccccc4)noc3C)OC2=O)ccc1OC(C)=O | 103 | -20 | . | .
CCCN(CC(=O)Nc1ccccc1OC)C(=O)c1ccncc1 | . | -4 | 108 | 92
CCN(C(=O)CS(=O)(=O)c1ccccc1)c1ccccc1C | 103 | -25 | 97 | 98
CN(C)c1ccc(C(CNC(=O)c2ccc3c(c2)OCO3)N2CCc3ccccc32)cc1 (stereo unspecified) | 109 | -8 | 103 | 97
COc1ccc(-c2nc3n(n2)C(c2ccc(OC)c(OC)c2)C(C(=O)Nc2cccnc2)=C(C)N3)cc1 (stereo unspecified) | 100 | . | 97 | 79
Cc1cc(N2CCN(S(=O)(=O)c3ccccc3)CC2)c2ccccc2n1 | 100 | -1 | 115 | 91
CCCS(=O)(=O)/C(C#N)=C/Nc1ccc2c(c1)OCCO2 | 95 | -1 | 99 | 83
Cc1cc(Oc2ccc(=O)n(C)n2)nc(=S)[nH]1 | 95 | -16 | 77 | 80
Cc1cccc(NC(=O)c2ccc(Br)o2)c1 | . | -1 | 95 | 85
COc1ccc(C)cc1NC(=O)Cn1cnc2c(nc3n2CCCCC3)c1=O | 108 | 3 | . | .
O=C(O)CCC1=NN2C=Nc3sc4c(c3C2NC1=O)CCCC4 (stereo unspecified) | 102 | -40 | 95 | 92
O=c1cc(CSc2n[nH]c(=O)n2C2CC2)c2ccc(O)cc2o1 | 105 | -33 | 101 | 94
O=C(Cn1c(SCC(=O)Nc2ccc(F)cc2)nc2ccccc21)NCc1ccccc1Cl | 104 | . | 73 | 73
COC(=O)/C=C/S(=O)(=O)c1ccc2ccccc2c1 | 97 | -4 | 41 | 9
O=C(COC(=O)c1cc(-c2ccco2)nc2ccccc12)c1ccccc1 | . | -32 | 77 | 54
O=c1cc(O)c2ccccc2[nH]1 | 105 | -14 | 107 | 79
Cc1sc2ncn(CC(=O)NC3CCCCCC3)c(=O)c2c1S(=O)(=O)N1CCN(c2ncccn2)CC1 | 98 | -17 | 92 | 91
CCN(CC)S(=O)(=O)c1cccc(C(=O)N2CCc3ccccc3C2)c1 | . | -26 | 132 | 83
CCOc1cccc(C(=O)Nc2cc(-c3ccc(C)cc3)no2)c1 | 103 | -9 | 104 | 77
Cc1ccc2nc(-c3cccc(NC(=O)c4cccc5ccccc45)c3)oc2c1 | 109 | -9 | 108 | 88
CC1CC(C)CN(C(=O)CSC2=NCCS2)C1 (stereo unspecified) | . | -23 | 105 | 94
CCN(CC)CCn1c2ccccc2n2cc(-c3ccc(OC)c(OC)c3)nc12 | 98 | 2 | . | .
O=C(Nc1ccc2oc(-c3cc(I)ccc3Cl)nc2c1)c1ncn[nH]1 | 104 | -9 | 124 | 80
O=C(NCCN1CCN(c2cccc(Cl)c2)CC1)C1c2ccccc2C(=O)N2CCc3ccccc3C12 (stereo unspecified) | 104 | -34 | 88 | 61
c1cncc(Nc2nc(-c3cccs3)cs2)c1 | . | -10 | 83 | 89
CC(=O)Nc1cc2c3c(c1)CCC(=O)N3CCC2 | 100 | -9 | 94 | 93
O=C(NCCC1=CCCCC1)c1cccc2c1C(=O)N(C1CCCCC1)C2 | 112 | 3 | 91 | 96
CCc1nnc(NC(=O)c2ccc(N3C(=O)C4C5C=CC(C5)C4C3=O)cc2)s1 (stereo unspecified) | 100 | . | 122 | 91
Cc1ccccc1-n1ccc(=O)[nH]c1=O | 109 | 19 | 102 | 96
Cc1cc(-c2ccc(S(=O)(=O)N3CCCCC3)s2)on1 | 100 | -27 | 99 | 89
O=C(Nc1ccccc1)N1CCn2c1nc1ccccc12 | 100&101 | -23 | 76 | 82
CNS(=O)(=O)c1cc(-c2nnc(Nc3ccc4c(c3)OCO4)c3ccccc23)ccc1C | 103 | . | 110 | 72
CN1N=C2c3ccccc3CCC2C1c1ccc(C#N)cc1 (stereo unspecified) | 99 | -41 | 83 | 85
CN1CCN(CC(C)(C)N)CC1 | 102 | 1 | 74 | 93
Clc1ccc2c(c1)NC(c1ccc3c(c1)OCO3)O2 (stereo unspecified) | 101 | -25 | 90 | 69
Cc1ccccc1C1CC(c2ccc(NS(C)(=O)=O)cc2)=NN1C(=O)CCC(=O)O (stereo unspecified) | 101 | -58 | . | .
Cc1cc(C)c2c(n1)sc1c(Cl)ncnc12 | 103 | 17 | 123 | 96
NS(=O)(=O)c1ccc(CCNc2ncnc3c2cnn3-c2cccc(Cl)c2)cc1 | 100 | . | 61 | 46
CC(C(=O)O)c1ccc2c(c1)[nH]c1ccc(Cl)cc12 (stereo unspecified) | . | -37&-1 | 100 | 92
O=C(CN1C(=O)c2ccccc2S1(=O)=O)N1CCCCCC1 | 99 | -11 | . | .
NN(Cc1ccccc1)c1ccccc1 | . | -24 | 83 | 42
CCOCCOC(=O)C1=C(C)NC2=C(C(=O)CC(c3ccc(Cl)cc3)C2)C1c1ccc(OC)cc1OC (stereo unspecified) | 100 | -22 | . | .
O=C1CCC(OC(=O)c2ccccc2)CC1 | 101 | 8 | 122 | 78
Cc1cc(C)cc(NC2=CC(c3cccc(F)c3)N(c3cc(C)cc(C)c3)C2=O)c1 (stereo unspecified) | 105 | -7 | 113 | 89
Cc1ccccc1NC(=O)c1ocnc1C | 99 | -1 | 89 | 88

Of the compounds above, 2 have a furan ring, fused or not:
SMILES | GIV Gai3 FP | HCMV UL50-53 inh | Sa growth 42C | Sa growth 42C second temp
Cc1cccc(NC(=O)c2ccc(Br)o2)c1 | . | -1 | 95 | 85
O=C(COC(=O)c1cc(-c2ccco2)nc2ccccc12)c1ccccc1 | . | -32 | 77 | 54

Following part.
SMILES | GIV Gai3 FP | HCMV UL50-53 inh | Sa growth 42C | Sa growth 42C second temp
CCOC(=O)c1cc(-c2ccc(C)cc2)n(CC(=O)Nc2cc(C)ccc2OC)c1C | 106 | 13 | . | .
O=C(CCCCl)Nc1ccccc1Cl | . | -7 | 100 | 88
O=C(O)C1CCCN1C(=O)c1cncc(Br)c1 (stereo unspecified) | 103 | -6 | 91 | 90
COc1ccc2nc(NC(=O)CCNS(=O)(=O)c3cccc4nsnc34)sc2c1 | 105 | -96 | 85 | 72
CCCCN(CCCC)c1nc(-c2ccccc2)nc2ccccc12 | 100 | 9 | 77 | 72
CCCc1cc2c(=O)c(-c3ccc(C(=O)OCC)o3)c(C(=O)OCC)oc2cc1OC | 100 | -4 | . | .
CCN1CCc2c(sc3nc(=S)[nH]c(N)c23)C1 | 111 | -49 | 87 | 55
Cc1ccc(Cn2c(C(=O)O)c(CNCc3ccccc3Cl)c3ccc(C)cc32)cc1 | 103 | . | 83 | 82
CCOC(=O)N1CCN(S(=O)(=O)c2ccc(F)c(C(=O)Nc3ccc(C(F)(F)F)cc3)c2)CC1 | 105 | -25 | 95 | 92
Cc1ccccc1CNC(=O)C1CCCN(c2nnc(-n3c(C)ccc3C)s2)C1 (stereo unspecified) | 100 | -3 | 95 | 82
C(=N\N=C\c1cccs1)/c1cccs1 | 101 | -50 | 91 | 84
CCOC(=O)C1CCCN(C(=O)c2cc(-c3ccco3)nc3ccccc23)C1 (stereo unspecified) | . | -36 | 74 | 65
CCOc1ccc(NC(=O)c2c[nH]n3c(=O)cc(C4CCN(C(=O)OC(C)(C)C)CC4)nc23)cc1 | 101 | -43 | 87 | 94
Cn1c(=N)n(CCOc2ccccc2Cl)c2ccccc21 | 109 | . | 88 | 68
CCc1ccc(NC(=O)C(=O)NCC(c2cccnc2)N2CCN(Cc3ccccc3)CC2)cc1 (stereo unspecified) | 101 | -9 | 95 | 100
COc1ccc(CN2C(=O)C(NC(=O)c3cccc(C)c3)(C(F)(F)F)N=C2c2ccccc2)cc1 (stereo unspecified) | 109 | -4 | 79 | 80
CN1CCN(C(=O)c2ccc(Cn3cc(Cl)cn3)o2)CC1 | 107 | 4 | 90 | 84
CCCOc1ccc(CNC(=O)CCCn2ncn3c(cc4sc(CC)cc43)c2=O)cc1 | 98 | -31 | 108 | 86
CCOc1ccc(C2C3=C(CC(c4ccc(O)c(OC)c4)CC3=O)Nc3onc(C)c32)cc1 (stereo unspecified) | 107 | -1 | . | .
CC1=C(c2ccc(F)cc2)S(=O)(=O)N=C1N1CCC(C(=O)NCCc2ccco2)CC1 | 110 | . | 87 | 97
CCOC(=O)c1c(NC(=O)c2nn(-c3ccc(OCC)cc3)ccc2=O)sc(C)c1C | 105 | 5 | . | .
Cc1oc(CC(C)C)cc1C(=O)N1CCN(C(=O)c2cc(CC(C)C)oc2C)CC1 | 101 | -9 | 99 | 98
CCC(C(=O)N1CCN(c2ccccc2F)CC1)n1nc(C)c2sc3ccccc3c2c1=O (stereo unspecified) | 106 | -8 | 97 | 98
Cc1csc2nc(CCNC(=O)c3cccs3)cn12 | 103 | -48 | 90 | 90
COC1=C(OC)C(=O)c2ccccc2C1=O | 92 | -7 | . | .
COc1ccc(C2CC(C(F)(F)F)n3ncc(C(=O)Nc4sc5c(c4C(=O)OC(C)C)CCCC5)c3N2)cc1 (stereo unspecified) | 114 | 13 | . | .
O=C(Cn1nnc(COc2ccccc2)n1)Nc1cccc(C(=O)NC2CC2)c1 | . | 13 | 108 | 101
O=C(O)CCCC(=O)Nc1cccc2cccnc12 | 105 | . | 88 | 78
O=C(O)c1ccccc1Oc1ccccc1 | 109 | 10 | 97 | 97
N#Cc1c(-c2ccccc2)cc(-c2ccccc2)c(C#N)c1N | . | -5 | 56 | 64
Cc1ccc(CNC(=O)C2(c3cccs3)CCOCC2)cc1 | 96 | . | 108 | 81
N#CCSc1nc2ccccc2o1 | 109 | 3 | 114 | 93
CCCCNc1nc2ccccc2c2nc(-c3ccccc3)nn12 | 109 | -6 | 105 | 70
Cc1cc(C)c(C#N)c(SCC(=O)NC2CCCCC2)n1 | . | -2 | 90 | 90
Cc1nccn1C(C)CC(=O)O (stereo unspecified) | . | -4 | 107 | 87
CC(C)(C)NC(=O)Cn1nnc(-c2ccc(S(C)(=O)=O)cc2)n1 | . | -7 | 86 | 88

A run of entries taken from the entries so far:
SMILES | GIV Gai3 FP | HCMV UL50-53 inh | Sa growth 42C | Sa growth 42C second temp
CN1CCN(C(=O)c2ccc(Cn3cc(Cl)cn3)o2)CC1 | 107 | 4 | 90 | 84
CCCOc1ccc(CNC(=O)CCCn2ncn3c(cc4sc(CC)cc43)c2=O)cc1 | 98 | -31 | 108 | 86
CCOc1ccc(C2C3=C(CC(c4ccc(O)c(OC)c4)CC3=O)Nc3onc(C)c32)cc1 (stereo unspecified) | 107 | -1 | . | .
CC1=C(c2ccc(F)cc2)S(=O)(=O)N=C1N1CCC(C(=O)NCCc2ccco2)CC1 | 110 | . | 87 | 97
CCOC(=O)c1c(NC(=O)c2nn(-c3ccc(OCC)cc3)ccc2=O)sc(C)c1C | 105 | 5 | . | .
Cc1oc(CC(C)C)cc1C(=O)N1CCN(C(=O)c2cc(CC(C)C)oc2C)CC1 | 101 | -9 | 99 | 98
CCC(C(=O)N1CCN(c2ccccc2F)CC1)n1nc(C)c2sc3ccccc3c2c1=O (stereo unspecified) | 106 | -8 | 97 | 98
Cc1csc2nc(CCNC(=O)c3cccs3)cn12 | 103 | -48 | 90 | 90
COC1=C(OC)C(=O)c2ccccc2C1=O | 92 | -7 | . | .
COc1ccc(C2CC(C(F)(F)F)n3ncc(C(=O)Nc4sc5c(c4C(=O)OC(C)C)CCCC5)c3N2)cc1 (stereo unspecified) | 114 | 13 | . | .
O=C(Cn1nnc(COc2ccccc2)n1)Nc1cccc(C(=O)NC2CC2)c1 | . | 13 | 108 | 101
O=C(O)CCCC(=O)Nc1cccc2cccnc12 | 105 | . | 88 | 78
O=C(O)c1ccccc1Oc1ccccc1 | 109 | 10 | 97 | 97
N#Cc1c(-c2ccccc2)cc(-c2ccccc2)c(C#N)c1N | . | -5 | 56 | 64
Cc1ccc(CNC(=O)C2(c3cccs3)CCOCC2)cc1 | 96 | . | 108 | 81
N#CCSc1nc2ccccc2o1 | 109 | 3 | 114 | 93
CCCCNc1nc2ccccc2c2nc(-c3ccccc3)nn12 | 109 | -6 | 105 | 70
Cc1cc(C)c(C#N)c(SCC(=O)NC2CCCCC2)n1 | . | -2 | 90 | 90
Cc1nccn1C(C)CC(=O)O (stereo unspecified) | . | -4 | 107 | 87
CC(C)(C)NC(=O)Cn1nnc(-c2ccc(S(C)(=O)=O)cc2)n1 | . | -7 | 86 | 88

(cont.)
SMILES | GIV Gai3 FP | HCMV UL50-53 inh | Sa growth 42C | Sa growth 42C second temp
CCCCn1c(NN)nc2sc3c(c2c1=O)CCCC3 | 95 | . | 66 | 81
O=S(=O)(c1ccc(Cl)cc1)c1nc(-c2ccccc2)oc1NCc1ccco1 | 100 | -6 | . | .
CCN(CC)C1=CC2=CC(=C(C#N)C#N)CCC2CC1 (stereo unspecified) | . | -53 | 66 | 92
COc1ccc(-c2nc3ccccc3c(=O)n2NC(=O)/C=C/c2ccc(Br)cc2)cc1OC | 103 | -2 | . | .
Cn1c(=NC(=O)COc2ccccc2)sc2cccc(F)c21 | 98 | -36 | 100 | 83
